Source: PubChem BioAssay
Vaccinia Venus: qHTS for Stage-Specific Inhibitors of Vaccinia Orthopoxvirus: Venus Reporter Primary qHTS; AID 720580, 2013; Vaccinia virus Venus reporter expression, fluorescence; Potency, µM (top dose mostly 36.5 µM), for the others: at the top dose activity change, negative = inhibition, most hits filed as inhibitors; 330,000 compounds, 0.46% hits; active means well fitted inhibition curve with a large enough effect; inconclusive means small, poorly fitted or top-dose-only effect; inactive means no such curve, though single readings can be large or run the other way; tested in A549 cells; also: nearly all actives have a fitted effect of over 30% in size; inactives centre near -10
Vaccinia mCherry: qHTS for Stage-Specific Inhibitors of Vaccinia Orthopoxvirus: mCherry Reporter Primary qHTS; Vaccinia virus mCherry reporter infection, fluorescence; about a quarter of the inactives have no number; AID 720579, 2013; Potency, µM (top dose mostly 36.5 µM), for inactives: top-dose activity change, negative = inhibition, hits mostly inhibitors; 310,000 compounds, 0.63% hits; active = well fitted inhibition curve with a large enough effect; inconclusive = small, poorly fitted or top-dose-only effect; inactive = no such curve, though single readings can be large or run the other way; tested in A549 cells; also: nearly all actives have a fitted effect of over 35% in size; inactives centre near -10
* = called active by the depositor; i = inactive; ? = inconclusive; . = no result given; & = joins results of further samples; [ ] = another dose, or the depositor's remark. % is scaled to controls: 0 for no effect and ±100 for the full control effect; potency is read from the fitted curve at half-maximal effect. Hits appear at their usual frequency; overall some 0.88% were active at least once.

SMILES	Vaccinia Venus	Vaccinia mCherry
COc1ccc(CCN(C)C2CCCN(C(=O)c3ccnn3C)C2)cc1OC (stereo not drawn)	-13%	i
Cc1cc(N2CCC(C)CC2)nc2ccc(NC(=O)CCC(=O)N3CCN(c4ccccc4F)CC3)cc12	-30%	-30%
Cc1cccc(CSc2nc3ccncc3n2CC(=O)Nc2cc(C)cc(C)c2)c1	-23%	i
O=C(c1ccc(Cl)cc1)N1CCCCC1CCN1CCOCC1 (stereo not drawn)	-10%	-15%
CS(=O)(=O)c1ccc(N2CCN(C3CC(=O)NC3=O)CC2)cc1 (stereo not drawn)	-19%	.
Cn1c(=O)c2c(nc(N3CCCCC3)n2C)n(C)c1=O	-7%	.
CCc1ccc2oc(=O)cc(CN3CCN(CCO)CC3)c2c1	-7%	-13%
CN(C)CCNc1c2c(c(C#N)c3nc4ccccc4n13)CCCC2	-13%	-6%
O=C(OCCN1CCOCC1)c1cccc(F)c1	-8%	i
CCC(=O)N1CCc2cc(S(=O)(=O)CCC(=O)N3CCN(c4cccc(C)c4C)CC3)ccc21	-7%	7%
Cc1ccc(-c2csc(NC(=O)c3ccccc3Cl)c2C(=O)O)cc1	-8%	i
CSC(SC)=C(C#N)C(=O)c1ccccc1	0%[7.34 µM]	i[7.34 µM]
CN1CCN(S(=O)(=O)c2ccc(-c3ccc(Cl)cc3)cc2)CC1	-12%	-18%
O=C(CNC(=O)C12CC3CC(CC(C3)C1)C2)N/N=C\c1ccccn1	4%	-10%
O=C(NCc1cccnc1)c1ccc(NC(=O)c2cccc([N+](=O)[O-])c2)cc1	-9%	-17%
O=C(CNS(=O)(=O)c1ccccc1)NCC(=O)N1CCCCC1	-6%	i
Cc1ccn2c(=S)[nH]nc2c1	0%	i
COc1ccc(S(=O)(=O)NCc2nc3nc(C)cc(C)n3n2)cc1OC	-7%&-7%	-1%&-8%
Cc1ccc(Cn2cc(CN3CC(N4CCN(C)CC4)CS3(=O)=O)nn2)cc1 (stereo not drawn)	-2%	-3%
C=CCN(CC=C)C(=S)NC(=O)c1ccc(OC)c(Br)c1	-28%	?
NC(=O)c1cc2cc(Cl)ccc2oc1=Nc1cccc(C(F)(F)F)c1	?	?
O=C(O)COc1ccccc1/C=N/NC(=O)CN1CCN(S(=O)(=O)c2ccc(Br)cc2)CC1	-11%	i
COc1ccc(-n2nnnc2C2CCN(S(=O)(=O)c3cccc(Cl)c3C)CC2)cc1	-17%	-8%
O=C(Nc1cccc(-c2nc3ccccc3o2)c1)c1ccc(N2C(=O)C3C4C=CC(C4)C3C2=O)cc1 (stereo not drawn)	?	.
Cc1ccc(NC(=O)c2c(-c3ccccc3Cl)noc2C)nc1	-14%	-13%
CCc1ccc(C(=O)c2cn(CC(=O)Nc3cc(F)ccc3F)c3nc(C)ccc3c2=O)cc1	-11%	-17%
O=C1Nc2ccc(F)cc2C12SCCS2	-10%	-6%
Cc1ccc2c(c1)C(=O)CC(O)(C(F)(F)F)O2 (stereo not drawn)	-20%	-6%
Cc1ccccc1N1CC(C(=O)Nc2ccc(S(=O)(=O)NCC3CCCO3)cc2)CC1=O (stereo not drawn)	0%	i
CCc1ccccc1NC(=O)CCNC(=O)Cn1ccc2ccccc2c1=O	1%	i
COc1ccc(OCCC(=O)OCC(=O)NCc2ccccc2)cc1	2%	-7%
Clc1cccc2sc(N3CCOCC3)nc12	-9%	-14%
CC1CCN(C(=O)C(C)NCc2ccc(F)cc2)CC1 (stereo not drawn)	-5%	-28%
C=CCOc1ccc(/C=C/C(=O)OCC(=O)NCC(=O)Nc2c(C)cc(C)cc2C)cc1	-12%	-16%
CCC(C(=O)Nc1ccc(C(=O)N2CCCC2)cc1)c1ccccc1 (stereo not drawn)	-7%	-15%
CN(C)c1ccc(C(=O)C(O)c2ccc(C(C)(C)C)cc2)cc1 (stereo not drawn)	-9%	-2%
Cc1ccnc2ccc(F)cc12	-9%	-9%
CCC(C)C(NC(=O)C1CCC(=O)N1C(=O)OCc1ccccc1)C(=O)NC(C(=O)N1CCCC1C(N)=O)C(C)CC (stereo not drawn)	4%	i
O=C(NNC(=O)c1cccnc1)NC12CC3CC(CC(C3)C1)C2	-22%	-10%
CCOC(=O)C1CCN(c2c(N3CCN(Cc4ccccc4)CC3)c(=O)c2=O)CC1	-6%	-13%
Cc1ccc(-n2c(C)nn(CC3CC3)c2=O)cc1	-1%	-2%
CC1=C(c2ccc(C)c(C)c2)S(=O)(=O)N(Cc2ccc(C(=O)Nc3cc(F)ccc3F)cc2)C1=O	-20%	-17%
Cc1ccc(N(Cc2ccccc2)C(=O)c2cc(S(=O)(=O)N3CCOCC3)ccc2N2CCCC2)cc1	-20%	-3%
COc1cccc(NC(=O)CN(C)S(=O)(=O)c2ccc(C)cc2)c1	-19%	-7%
O=C(CSc1n[nH]c(=O)n1Cc1ccco1)N1CCOCC1	-2%	i
Cc1nn(CCCC(=O)NCc2ccc(F)cc2)c(=O)c2c1sc1ccccc12	-13%	-19%
COc1cc(/C=C/CO)ccc1O[C@@H]1O[C@H](CO)[C@@H](O)[C@H](O)[C@H]1O	-8%	-13%
O=C1OCCN1C(=O)[C@H]1[C@H](c2ccc([N+](=O)[O-])cc2)C(c2ccc(F)cc2)=NN1c1ccccc1	?	-28%
Cc1cc(C)n(CC(=O)NNC(=O)CCCOc2ccc(Cl)c(C)c2)n1	-17%	-2%
CC(C(=O)N1CCc2ccccc2C1)N(c1ccccc1)S(C)(=O)=O (stereo not drawn)	0%	-18%
CN(C)c1ccc(CNc2ccccn2)cc1	-14%	-10%
CC(=O)c1cccc(-n2nnnc2SCC(=O)Nc2ccccc2N2CCCCC2)c1	-37%	-24%
COc1ccc2[nH]c3c(c2c1)CCN1C(=O)C(CC(=O)NCc2ccco2)C[C@H](C(=O)N2CCCCC2)[C@@]31C (stereo partly drawn)	-8%	i
CC(=O)c1c(C)[nH]c(C(=O)Nc2ccc(Cl)cc2)c1C	?	-23%
Cc1ccc(S(=O)(=O)C2(C(=O)NCCc3ccccc3)CC2)cc1	-8%	i
Cc1ccccc1OCCn1cnc2c(N)ncnc21	-21%	.
COc1ccc(C2=NOC(Cn3nc(C(=O)NCc4ccc5c(c4)OCO5)cc3-c3ccccc3)C2)cc1 (stereo not drawn)	-11%	-12%
CC(=O)N1CCc2c(sc3c2c(=O)n(-c2ccccc2Cl)c(=O)n3C)C1	3%	1%
O=C(Cn1c(=S)[nH]c2ccccc2c1=O)NCCc1ccccc1	-6%	-10%
N#CC(c1ccc([N+](=O)[O-])cc1)C(CC(=O)c1ccccc1)c1ccccc1 (stereo not drawn)	-8%	-17%

Whole records as entered above. Order of values: Vaccinia Venus	Vaccinia mCherry
`CC(=O)c1cccc(-n2nnnc2SCC(=O)Nc2ccccc2N2CCCCC2)c1` is listed as -37%	-24%
`Cc1nn(CCCC(=O)NCc2ccc(F)cc2)c(=O)c2c1sc1ccccc12` is listed as -13%	-19%
`O=C1OCCN1C(=O)[C@H]1[C@H](c2ccc([N+](=O)[O-])cc2)C(c2ccc(F)cc2)=NN1c1ccccc1` is listed as ?	-28%
`COc1ccc2[nH]c3c(c2c1)CCN1C(=O)C(CC(=O)NCc2ccco2)C[C@H](C(=O)N2CCCCC2)[C@@]31C` (stereo partly drawn) is listed as -8%	i
`COc1ccc(C2=NOC(Cn3nc(C(=O)NCc4ccc5c(c4)OCO5)cc3-c3ccccc3)C2)cc1` (stereo not drawn) is listed as -11%	-12%

New compounds follow
SMILES	Vaccinia Venus	Vaccinia mCherry
CC(C)c1ccc(CN2C(=O)c3ccccc3S2(=O)=O)cc1	-24%	-6%
Cc1nn(Cc2ccc(F)cc2)c(C)c1NC(=O)C1c2ccccc2Oc2ccccc21	-15%	-3%
O=C(Nc1c(C(=O)N2CCOCC2)cnn1-c1ccccc1)c1ccccc1F	0%	-11%
COc1ccc2[nH]c(O)c(N=NC(=N)N)c2c1	-7%	i
CCOCCOC(=O)c1[nH]c2c(c1C)C(=O)CC(c1cc(OC)c(OC)c(OC)c1)C2 (stereo not drawn)	-15%	1%
COc1cccc(/C=C/C(=O)OCC(=O)NCc2ccco2)c1	-9%	-14%
COc1ccc(CCNC(=O)c2c(Cl)ccc(Cl)c2OC)cc1OC	-3%	i
Cc1ccc(NC(=O)CN2CCN(CCN=CC3=C(O)CC(c4ccccc4)CC3=O)CC2)cc1 (stereo not drawn)	-12%	-6%
CCCNC(=O)N1CCN(S(=O)(=O)c2ccc(C)cc2)CC1	-1%	i
CCn1c(SCC(=O)NC2CCCCC2)nc2c(c1=O)SCC2	-2%	-12%
COc1ccc(OC)c(NC(=O)CCNS(=O)(=O)c2cccc3nonc23)c1	-14%	i
CCOC(=O)[C@]12Cc3ccc(C)cc3[C@H]1N(C1CCCCC1)C(=O)c1cc(OC)ccc12	?	?
Cc1cc(C(=O)OCC(=O)NCc2cccs2)ccc1[N+](=O)[O-]	-2%	-11%
CC1CCN(Cc2cnc(Cl)s2)CC1	-3%	-13%
CCc1nnc(N2C(=O)c3cccc4cccc(c34)C2=O)s1	-6%	.
O=c1c2cccnc2n(Cc2ccccc2F)c(=O)n1Cc1ccc(F)cc1	-7%	-21%
CCCOc1ccc2oc(=O)c3c(c2c1)CCCN3C(=O)CN1CCc2ccccc2C1	?	.
Cc1nc2cc(C(=O)NCc3ccc4c(c3)OCO4)ccc2n1-c1ccc(Br)cc1	-18%	-1%
CCOc1cccc(Nc2nn(-c3ccc(OC(F)(F)F)cc3)nc2C(C)=O)c1	-7%	-7%
CS(=O)(=O)c1ccc(Cl)c(NC(=O)CCN2C(=O)NC3(CCCC3)C2=O)c1	-5%	i
Cc1ccc(S(=O)(=O)N(CC(=O)Nc2ccc(C)cc2C)C(=O)N2CCN(C)CC2)cc1	-2%	i
CNc1nnc(C(F)(F)F)s1	-4%	-2%
CS(=O)(=O)c1ccc(-c2nnc(NC(=O)c3cccc(N4C(=O)CCC4=O)c3)o2)cc1	4%	i
Cc1oc2cc3c(C(=O)N4CCCCC4)c(C)oc3cc2c1C(=O)N1CCCCC1	-4%	-13%
OC[C@@H]1CN(Cc2cccc3ccccc23)C[C@H](n2cnc3c(NCc4ccco4)ncnc32)O1	-17%	-11%
Cc1ccccc1NC(=O)C(C)OC(=O)CCC(=O)c1ccccc1 (stereo not drawn)	-14%	i
O=[N+]([O-])c1ccc(Sc2nnnn2-c2ccccc2)nc1	-22%	-26%
O=C(Nc1ccccc1)NC1CCCCNC1=O (stereo not drawn)	1%	-9%
O=C(NCCCNC(=O)c1cc(Cl)ccc1Cl)c1ccccn1	-16%	-17%
O=C(NCc1ccc(F)cc1)c1cc(C2CCCCN2S(=O)(=O)c2cccc3cccnc23)on1 (stereo not drawn)	-9%	16%
O=C(CCc1nnc(-c2ccsc2)o1)N1CCc2c(Cl)cccc2C1	-5%	-13%
Cc1ccc(C)c(Nc2c([N+](=O)[O-])c(=O)oc3ccccc23)c1	-9%	-19%
CC(=O)c1ccc(NC(=O)c2ccc3c(c2)C(=O)N(c2ccccn2)C3=O)cc1	-11%	-2%
COc1ccc(N(C(=O)c2snc(C(N)=O)c2N)C(C(=O)NC2CCCC2)c2cc(OC)ccc2OC)c(OC)c1 (stereo not drawn)	7%	-19%
CCN(CC)C(=O)CN1CCN(c2ccccc2F)CC1	-8%	-17%
O=C1C=CC(=O)N1N(c1ccccc1)c1ccccc1	?	-26%
O=C1N[C@H](Cc2ccccc2)C(=O)N[C@H]1Cc1cn(S(=O)(=O)c2ccccc2)c2ccccc12	-13%	i
Cc1[nH]c(=O)sc1C(=O)NCc1ccc([N+](=O)[O-])cc1	4%	9%
COc1ccc(-c2nc(SCC(=O)NC3CCCC3)c(-c3ccc(C)cc3)[nH]2)cc1OC	-16%	-14%
COc1ccc(S(=O)(=O)Nc2cc(C)on2)cc1OC	-4%	-23%
Cn1c2ccccc2c(=O)c2c(=O)n(Cc3ccccc3)c(-c3ccc(F)cc3)nc21	-12%	i
O=C1NCN(c2ccccc2)C12CCN(C(c1cccs1)c1nnnn1-c1ccc3c(c1)OCCO3)CC2 (stereo not drawn)	-14%	0%
CCOC(=O)COc1cc([N+](=O)[O-])cc2cccnc12	-13%	-7%
O=C(CSc1ccc(-c2ccco2)nn1)NC1CCCC1	-1%	i
CCOCCCN(C(=O)Nc1ccc(CC)cc1)C1CCN(C(C)=O)CC1	-15%	?

Rewritten field by field: part of the list above
> O=C(CSc1ccc(-c2ccco2)nn1)NC1CCCC1
  Vaccinia Venus = -1%; Vaccinia mCherry = i
> O=C1C=CC(=O)N1N(c1ccccc1)c1ccccc1
  Vaccinia Venus = ?; Vaccinia mCherry = -26%

Of the compounds above, these contain a COOH group.
SMILES	Vaccinia Venus	Vaccinia mCherry
Cc1ccc(-c2csc(NC(=O)c3ccccc3Cl)c2C(=O)O)cc1	-8%	i
O=C(O)COc1ccccc1/C=N/NC(=O)CN1CCN(S(=O)(=O)c2ccc(Br)cc2)CC1	-11%	i
